# Screening results (PubChem BioAssay)
# BJeLR viab HTS: BJeLR cell viability reduction. BJeLR fibroblasts viability, CellTiterGlo ATP luminescence, 48 h; HRASV12, hTERT and SV40 LT/ST transformed. viability loss activity score, % (concentration not given with the values). hit rate 0.64% among 30,000; in the data active = viability loss activity score above about 50%; about a fifth of its hits are not listed in these tables;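 note: higher score means fewer live cells and less ATP luminescence; stock transfer was 50 or 100 nL into about 30 µL; 0% = vehicle wells and 100% = a reference killing control; one replicate is shown; the record names a cut of 85%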
# A1 inhib: A1 inhibition. MEF A1-2A-BIM cells, caspase-Glo luminescence, 3 h; percent of clofoctol signal, DMSO as zero. caspase activation, % (concentration not given with the values). hit rate 0.51% among 21,000. AID 2241;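 active = most replicate scores above 10, or exactly half above 10 with mean activity above 10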;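 note: effector caspase 3 and 7 activity cleaving a DEVD luciferin substrate; 50 nL library stock added to about 30 µL; numbers are from one replicate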
# * hit, by the source's call; . = no result given. Not all compounds are listed, so the mix of outcomes need not match the whole.
# Every second line gives: BJeLR viab HTS	A1 inhib
> COc1ccc(NC(=O)Nc2cccc3c2O[C@@H](CN(C)S(=O)(=O)c2ccc(C)cc2)[C@@H](C)CN([C@H](C)CO)C3=O)cc1
→ -5.4	.
> C[C@@H]1CN([C@H](C)CO)C(=O)c2cc(NC(=O)Nc3ccc(F)cc3)ccc2O[C@H]1CN(C)Cc1ccc(Cl)c(Cl)c1
→ 0.0	-0.4
> Cc1cc(C(C)(C)C)cc(S(=O)(=O)Nc2ccc(C(=O)N3CCC(C)CC3)cc2)c1C
→ -6.8	0.3
> C[N+]1(CC(O)CN2CCCC2=O)CCCCCC1 (stereo not given)
→ -7.6	0.6
> C[C@@H]1CN([C@@H](C)CO)C(=O)c2cccc(NC(=O)Nc3ccc4c(c3)OCO4)c2O[C@@H]1CN(C)C(=O)Nc1ccc2c(c1)OCO2
→ -3.8	.
> Cc1c(C)n(Cc2ccc(Br)cc2)c(=O)n(Cc2ccc(Br)cc2)c1=O
→ -2.9	-0.1
> C[C@H]1CN([C@@H](C)CO)C(=O)c2cccc(NC(=O)C3CCCCC3)c2O[C@@H]1CN(C)Cc1ccc(C(F)(F)F)cc1
→ 12	.
> COc1ccc(S(=O)(=O)Nc2cccc3c2O[C@@H](CN(C)S(=O)(=O)c2ccc(C)cc2)[C@H](C)CN([C@H](C)CO)C3=O)cc1
→ -3.8	.
> COc1ccc(C(=O)c2oc3ccccc3c2NC(=O)C(C)(C)C)cc1
→ -1.3	.
> C[C@@H]1CN([C@H](C)CO)C(=O)c2cc(NS(=O)(=O)c3ccc(Cl)cc3)ccc2O[C@@H]1CN(C)C(=O)Nc1ccc2c(c1)OCO2
→ -1.4	-0.1
> NC(=NC(=O)c1cnccc1C(F)(F)F)c1ccccn1
→ -6.6	0.1
> CSc1sc(-c2ccnc(SCC(=O)C(C)(C)C)n2)c2c1C(=O)CC(C)(C)C2
→ -3.0	-1.0
> C=C1CC/C=C(/C(=O)O)C[C@H](O)C2C1CC2(C)C (stereo not given in full)
→ -8.0	0.2
> CC1=NN(c2ccc(C)c(C)c2)C(=O)/C1=C/c1ccc2c(c1)n(C)c(=O)n2C
→ -0.5	.
> C[C@@H]1CN([C@@H](C)CO)C(=O)c2cc(NC(=O)Nc3cccc4ccccc34)ccc2O[C@H]1CN(C)S(=O)(=O)c1cn(C)cn1
→ 0.0	0.2
> COc1ccc(CN(C)C[C@H]2Oc3ccc(NC(=O)Nc4ccc5c(c4)OCO5)cc3C(=O)N([C@@H](C)CO)C[C@@H]2C)cc1
→ 0.2	-0.5
> Cc1noc(C)c1NC(=O)N(C)C[C@@H]1Oc2ccc(NC(=O)Nc3ccc(F)cc3)cc2C(=O)N([C@H](C)CO)C[C@H]1C
→ -2.8	0.5
> COc1ccc(S(=O)(=O)N(C)C[C@H]2Oc3ccc(NS(=O)(=O)c4ccc(F)cc4)cc3C(=O)N([C@H](C)CO)C[C@H]2C)cc1
→ 2.7	0.2
> Cc1noc(C)c1S(=O)(=O)Nc1ccc2c(c1)C(=O)N([C@@H](C)CO)C[C@H](C)[C@H](CN(C)CC1CC1)O2
→ 0.5	0.5
> C[C@H](CO)N1C[C@H](C)[C@@H](CN(C)C(=O)Nc2ccc(F)cc2)Oc2ccc(NC(=O)Nc3ccc(C(F)(F)F)cc3)cc2C1=O
→ -5.7	-0.2
> COc1ccc(Cl)cc1NC(=O)CSc1nc2nccnc2c(=O)n1CC1CCCO1 (stereo not given)
→ -3.0	0.3
> COc1cccc(NC(=O)COC(C)=O)c1
→ -0.4	-0.8
> Nc1ncn(C(=O)c2ccccc2)n1
→ 0.5	.
> COC(CNC(=O)c1cccc(-n2c(=S)[nH]c3cc(Cl)ccc3c2=O)c1)OC
→ 1.4	0.5
> O=C1CC(c2ccco2)Sc2ccccc2N1 (stereo not given)
→ 2.8	-0.4
> C[C@@H]1CN([C@H](C)CO)C(=O)c2cccc(NC(=O)c3nc4ccccc4s3)c2O[C@@H]1CN(C)C(=O)Nc1ccc2c(c1)OCO2
→ -4.0	.
> C[C@H](CO)N1C[C@H](C)[C@@H](CN(C)C(=O)Nc2ccc3c(c2)OCO3)Oc2ccc(NC(=O)Cc3ccccc3)cc2C1=O
→ 5.9	0.9
> C[C@@H]1CN([C@H](C)CO)C(=O)c2cccc(NC(=O)c3cnccn3)c2O[C@@H]1CN(C)Cc1ccc(C(F)(F)F)cc1
→ 1.5	.
> Cc1ccccc1OCC1CN(CN(CC(C)C)CC(C)C)C(=O)O1 (stereo not given)
→ 6.3	-0.2
> CC1CC(N(C(=O)c2ccc(Cl)cc2)c2ccccc2)c2ccccc2N1C(=O)c1ccco1 (stereo not given)
→ -4.0	0.9
> COc1cc2c(cc1OC)C(=O)OC2
→ -11	0.1
> CC(C)NC(=O)Nc1ccc2c(c1)C(=O)N([C@H](C)CO)C[C@@H](C)[C@H](CN(C)C(=O)Nc1ccccc1)O2
→ 2.3	0.2
> CCSc1nc(-c2ccc(C)cc2)cc(C(F)(F)F)c1C#N
→ -1.1	.
> Cc1noc(C)c1NC(=O)Nc1ccc2c(c1)C(=O)N([C@H](C)CO)C[C@@H](C)[C@H](CN(C)S(C)(=O)=O)O2
→ 1.1	0.3
> C[C@H](CO)N1C[C@H](C)[C@H](CN(C)C(=O)Nc2ccc(C(F)(F)F)cc2)Oc2c(NC(=O)Nc3ccc(F)cc3)cccc2C1=O
→ 2.6	.
> C[C@H](CO)N1C[C@H](C)[C@H](CN(C)C)Oc2ccc(NC(=O)C3CCCCC3)cc2C1=O
→ 1.8	0.3
> NC(=O)c1c(NC(=O)Nc2ccccc2)sc2c1CCCC2
→ -11	.
> O=C(c1cccnc1)N1CCN(C(c2ccccc2)c2ccccc2)CC1
→ 0.9	0.1
> CCOc1ccc(NC(=O)CCS(=O)(=O)c2ccc3c(c2)OCC(=O)N3)cc1
→ -2.1	-1.0
> C=CCN1C(=O)/C(=C2\SC(N3CCCCC3)=NC2=O)c2ccccc21
→ -1.9	-1.6
> C[C@H]1CN([C@@H](C)CO)C(=O)c2cc(NC(=O)CCCN(C)C)ccc2O[C@@H]1CN(C)S(C)(=O)=O
→ 6.0	0.0
> COc1ccc(NC(=O)Nc2cccc3c2O[C@@H](CN(C)Cc2ccc(C(=O)O)cc2)[C@H](C)CN([C@H](C)CO)C3=O)cc1
→ -4.3	.
> CC(C)N(Cc1nc(-c2ccccc2)no1)C(=O)CCc1ccccc1
→ -7.4	.
> CC(C)NC(=O)N(C)C[C@@H]1Oc2ccc(NC(=O)CCN3CCOCC3)cc2C(=O)N([C@H](C)CO)C[C@H]1C
→ -1.5	0.3
> COc1ccc(S(=O)(=O)N(C)C[C@@H]2Oc3c(NC(=O)c4cc(C)nn4C)cccc3C(=O)N([C@H](C)CO)C[C@@H]2C)cc1
→ -2.0	.
> CC(C)NC(=O)Nc1ccc2c(c1)C(=O)N([C@H](C)CO)C[C@@H](C)[C@H](CN(C)C(=O)Nc1cccc3ccccc13)O2
→ 2.1	1.0
> C[C@H]1CN([C@@H](C)CO)C(=O)c2cccc(NC(=O)c3ccncc3)c2O[C@H]1CN(C)Cc1ccc(-c2ccccc2)cc1
→ -0.3	.
> CC(C)NC(=O)N(C)C[C@@H]1Oc2ccc(NC(=O)C3CC3)cc2C(=O)N([C@H](C)CO)C[C@@H]1C
→ 5.0	-0.5
> Cc1ccc(S(=O)(=O)N(C)C[C@@H]2Oc3ccc(NC(=O)Nc4cccc5ccccc45)cc3C(=O)N([C@H](C)CO)C[C@H]2C)cc1
→ 3.7	0.4
> C[C@@H]1CN([C@H](C)CO)C(=O)c2cc(NC(=O)Nc3ccc(F)cc3)ccc2O[C@@H]1CN(C)Cc1ccncc1
→ -5.9	0.2

# 15 structures from above, ordered by molar mass, high to low:
# Every second line gives: BJeLR viab HTS	A1 inhib
> Cc1ccc(S(=O)(=O)N(C)C[C@@H]2Oc3ccc(NC(=O)Nc4cccc5ccccc45)cc3C(=O)N([C@H](C)CO)C[C@H]2C)cc1
→ 3.7	0.4
> COc1ccc(S(=O)(=O)N(C)C[C@@H]2Oc3c(NC(=O)c4cc(C)nn4C)cccc3C(=O)N([C@H](C)CO)C[C@@H]2C)cc1
→ -2.0	.
> COc1ccc(NC(=O)Nc2cccc3c2O[C@@H](CN(C)Cc2ccc(C(=O)O)cc2)[C@H](C)CN([C@H](C)CO)C3=O)cc1
→ -4.3	.
> CC(C)NC(=O)Nc1ccc2c(c1)C(=O)N([C@H](C)CO)C[C@@H](C)[C@H](CN(C)C(=O)Nc1cccc3ccccc13)O2
→ 2.1	1.0
> C[C@@H]1CN([C@H](C)CO)C(=O)c2cc(NC(=O)Nc3ccc(F)cc3)ccc2O[C@@H]1CN(C)Cc1ccncc1
→ -5.9	0.2
> CC(C)NC(=O)N(C)C[C@@H]1Oc2ccc(NC(=O)CCN3CCOCC3)cc2C(=O)N([C@H](C)CO)C[C@H]1C
→ -1.5	0.3
> Cc1noc(C)c1NC(=O)Nc1ccc2c(c1)C(=O)N([C@H](C)CO)C[C@@H](C)[C@H](CN(C)S(C)(=O)=O)O2
→ 1.1	0.3
> CC(C)NC(=O)N(C)C[C@@H]1Oc2ccc(NC(=O)C3CC3)cc2C(=O)N([C@H](C)CO)C[C@@H]1C
→ 5.0	-0.5
> C[C@H](CO)N1C[C@H](C)[C@H](CN(C)C)Oc2ccc(NC(=O)C3CCCCC3)cc2C1=O
→ 1.8	0.3
> CCOc1ccc(NC(=O)CCS(=O)(=O)c2ccc3c(c2)OCC(=O)N3)cc1
→ -2.1	-1.0
> O=C(c1cccnc1)N1CCN(C(c2ccccc2)c2ccccc2)CC1
→ 0.9	0.1
> C=CCN1C(=O)/C(=C2\SC(N3CCCCC3)=NC2=O)c2ccccc21
→ -1.9	-1.6
> CC(C)N(Cc1nc(-c2ccccc2)no1)C(=O)CCc1ccccc1
→ -7.4	.
> CCSc1nc(-c2ccc(C)cc2)cc(C(F)(F)F)c1C#N
→ -1.1	.
> NC(=O)c1c(NC(=O)Nc2ccccc2)sc2c1CCCC2
→ -11	.

# Other entries.
# Every second line gives: BJeLR viab HTS	A1 inhib
> Cc1ccc2c(C(=O)CNc3nncs3)c(C)[nH]c2c1
→ -2.6	0.5
> O=C(/C=C/c1ccccc1)Nc1ccc(Br)cc1
→ -0.4	-2.2
> CC1=CCC2C(=O)N(c3ccc(C(=O)Nc4ccccc4)cc3)C(=O)C2C1 (stereo not given)
→ -3.6	-1.0
> Cc1ccc(CSCC(=O)NCCc2ccc(Cl)cc2)cc1
→ -0.1	0.4
> Cc1ccccc1C(=O)Nc1nc(SCc2ccc(Cl)cc2)n[nH]1
→ 2.7	0.0
> O=C(Nc1cc(S(=O)(=O)c2ccccc2)cs1)c1ccc(Cl)cc1
→ 3.1	-0.5
> C[C@@H]1CN([C@H](C)CO)C(=O)c2cccc(NC(=O)C3CC3)c2O[C@@H]1CN(C)C(=O)Nc1ccccc1
→ -0.3	.
> CCN(C(=O)C1CCN(S(=O)(=O)c2cccc3nonc23)CC1)c1ccccc1
→ -3.4	.
> CN(C(=O)CN(CCO)CC(=O)N(C)C(C)(C)Cc1ccccc1)C(C)(C)Cc1ccccc1
→ 9.1	0.4
> CC(=O)NC1C(=O)Nc2ccccc2S(=O)(=O)C1c1ccccc1 (stereo not given)
→ 1.7	-0.2

# Two successive entries out of the list so far, quoted:
# Every second line gives: BJeLR viab HTS	A1 inhib
> CN(C(=O)CN(CCO)CC(=O)N(C)C(C)(C)Cc1ccccc1)C(C)(C)Cc1ccccc1
→ 9.1	0.4
> CC(=O)NC1C(=O)Nc2ccccc2S(=O)(=O)C1c1ccccc1 (stereo not given)
→ 1.7	-0.2

# Continued.
# Every second line gives: BJeLR viab HTS	A1 inhib
> O=C(O)c1ccc(/C=N/N2C(=O)c3cccc4cccc(c34)C2=O)cc1
→ 3.5	0.5
> C[C@@H]1CN([C@H](C)CO)C(=O)c2cccc(NS(=O)(=O)c3cccs3)c2O[C@H]1CN(C)Cc1ccccc1
→ -5.4	.
> COc1ccc(-c2c3c(nc4sc(C(=O)N5CCCCCC5)c(N)c24)CC(C)(C)CC3=O)cc1
→ -3.3	.
> O=C(Nc1ccn(C2OC(CO)C(O)C2O)c(=O)n1)c1ccccc1 (stereo not given)
→ 8.1	0.5
> C[C@@H]1CN([C@H](C)CO)C(=O)c2cc(NC(=O)Nc3cccc4ccccc34)ccc2O[C@H]1CN(C)S(=O)(=O)c1ccccc1
→ -2.2	0.2
> CC(=O)Nc1ccc(NC(=O)CCSc2ccccc2)cc1
→ 7.0	-0.7
> O=C(/C=C/c1ccco1)C1(O)CCCCC1
→ -6.0	-0.6
> CCOc1ccc(N(CC)S(=O)(=O)c2cccc3nsnc23)cc1
→ 17	.
> COc1ccc(S(=O)(=O)Nc2ccc3c(c2)C(=O)N([C@@H](C)CO)C[C@@H](C)[C@H](CN(C)S(=O)(=O)c2cccs2)O3)cc1
→ 11	-0.2
> CNC[C@H]1Oc2ccc(NC(=O)C3CCCCC3)cc2C(=O)N([C@@H](C)CO)C[C@H]1C
→ -2.7	0.4
> Cc1sc2ncnc(SCC(=O)O)c2c1C
→ -1.9	-1.0
> Cc1ccc(S(=O)(=O)Nc2cccc3c2O[C@H](CN(C)Cc2ccc(-c4ccccc4)cc2)[C@H](C)CN([C@H](C)CO)C3=O)cc1
→ -6.3	.
> CN1C(=O)S/C(=C\c2cc(Cl)c(OCC(=O)O)c(Cl)c2)C1=O
→ 0.1	.
> O=C(O)CCCC=C(c1ccccc1)c1ccccc1
→ -4.1	-0.5
> COc1cc(NS(=O)(=O)c2ccc(NC(=O)c3ccccc3)cc2)nc(OC)n1
→ 3.3	0.0
> Cc1ccc(S(=O)(=O)N(C)C[C@H]2Oc3ccc(NC(=O)Cn4cnnn4)cc3C(=O)N([C@@H](C)CO)C[C@@H]2C)cc1
→ -5.5	-0.4
> O=c1c2sccc2[nH]c(=S)n1CC1CCCO1 (stereo not given)
→ -2.2	0.9
